Hsc70 – Hsc70 inhibitors, probe displacement, primary screen, biochemical, fluorescence polarization (AID 568). 83,000 tested, under 10 active. Heat shock cognate 71 kDa protein (Homo sapiens). Hsc70 fluorescence polarization, probe displacement; higher % means a stronger effect; strong numbers were not always called active. one-dose displacement, % at 20 µM; IC50 in µM for titrated hits;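 active = displacement above 50% without optical interference and an IC50 on retest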;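 also: ATPase domain with a fluorescein-tagged ATP probe; 0% = vehicle and 100% = excess ADP; read after one hour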
MT1-MMP promoter – inhibitors of MT1-MMP promoter transcription, cell-based, luciferase reporter, luminescence (AID 618). MT1-MMP promoter luciferase reporter cells, luminescence. calls from a first round at 10 µM; hits with a dose series show EC50 in µM. 0.62% of 87,000 active;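 active = over half of the reporter light lost at 10 µM or EC50 under 50 µM; inactive = the rest and hits that failed the dose series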;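 also: actives suppress MT1-MMP promoter-driven transcription so potencies describe inhibitors; HT1080 fibrosarcoma cells; overnight exposure; toxic or luciferase-blocking compounds were not removed from the actives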
WNV protease inh – inhibitors of WNV NS2B-NS3 protease, primary screen, biochemical, fluorogenic substrate; AID 577, 2007; 0.18% of 65,000 active; fluorogenic substrate Ex360/Em465; active compounds read low; z-score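 (tested at a level between 10 and 100 µM)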;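 active = z-score at -3 or under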;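 also: score is relative to mean and spread of the compound wells of a plate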
Target sequence (P06935 1371-1501 limits assumed): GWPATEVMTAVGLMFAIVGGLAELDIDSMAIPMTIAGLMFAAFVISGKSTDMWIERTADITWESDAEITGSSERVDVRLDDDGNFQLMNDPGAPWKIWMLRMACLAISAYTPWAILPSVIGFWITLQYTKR
Target sequence (P06935 1502-1679 limits assumed): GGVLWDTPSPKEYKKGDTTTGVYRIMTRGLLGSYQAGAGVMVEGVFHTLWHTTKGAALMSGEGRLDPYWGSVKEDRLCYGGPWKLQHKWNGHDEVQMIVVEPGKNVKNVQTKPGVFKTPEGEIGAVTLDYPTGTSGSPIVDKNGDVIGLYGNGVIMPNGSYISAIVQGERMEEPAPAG
* hit, by the source's call; i = inactive; x = no result given; + = active, no number. This is a subset; the hit share may differ from the screen's.

Every second line gives: MT1-MMP promoter	WNV protease inh	Hsc70
N#CC1=C(N)OC(c2ccccc2)=C(C#N)C1c1ccc2c(c1)OCO2 (stereo unspecified)
→ i	0.65	-1.7%
CCOc1cccc(/C(O)=C2/C(=O)C(=O)N(CCOC)C2c2ccncc2)c1 (stereo unspecified)
→ i	0.29	-8.9%
COc1ccc(/C=N/Nc2nonc2N)cc1OC
→ i	x	2.7%
O=C(Nc1ccccc1)c1ccc(NC2CCCCC2)c(S(=O)(=O)N2CCOCC2)c1
→ i	x	3.1%
O=C(Nc1ccc2c(c1)nc1n2CCN(Cc2ccccc2)C1)c1cccs1
→ i	-0.62	7.3%
COc1ccc(Oc2ncnc3c2ncn3Cc2ccccc2)cc1
→ i	-0.07	4.1%
Cc1cccc(NC(=O)Nc2ccc(C)c(C)c2)n1
→ i	x	-1.3%
O=C(CSc1nccn1Cc1ccccc1)NCc1ccccc1
→ i	x	3.6%
CCOC(=O)N1CCN(C(=O)C2CCN(S(=O)(=O)N3CCCC3)CC2)CC1
→ i	0.0027	-0.2%
CN(C)S(=O)(=O)n1cnc2ccccc21
→ i	0.07	2.9%
COc1ccc2c(c1)c(=O)oc1cc(OCC(=O)N3CCc4ccccc4C3)ccc12
→ i	x	-2.7%
O=C(NCc1cccs1)Nc1cccs1
→ i	1.8	0.7%
CCOC(=O)c1ccc(N2C(=O)CC(N3CCN(C/C=C/c4ccccc4)CC3)C2=O)cc1 (stereo unspecified)
→ i	-0.5	-0.6%
CCN1CCN(C(=O)CS(=O)Cc2nc(-c3ccc(OC)cc3)oc2C)CC1 (stereo unspecified)
→ i	-1.5	6.6%
CC(C)CC1N=C2c3ccccc3N=C(SCc3cc(=O)n4ccccc4n3)N2C1=O (stereo unspecified)
→ i	-0.19	-2.3%
CCc1c(C)nc(N)nc1OCC(F)(F)C(F)F
→ i	-0.2	0.8%
CCOc1ccc(CCNc2nc3c(c(=O)n(C)c(=O)n3C)n2CC)cc1OCC
→ i	-0.16	2.2%
O=C(O)Cn1cccc1C(=O)c1ccccc1
→ i	-0.56	4.3%
CCN(CC(=O)N1CCCCCC1)S(=O)(=O)c1ccc(Cl)cc1
→ i	-0.83	1.0%
CCCn1c(=O)c2c(c3ccccc31)OC(C)C(=O)N2 (stereo unspecified)
→ i	0.8	2.2%

Limited to Hsc70, for some of the entries so far:
mol,Hsc70
CN(C)S(=O)(=O)n1cnc2ccccc21,2.9%
CCOC(=O)c1ccc(N2C(=O)CC(N3CCN(C/C=C/c4ccccc4)CC3)C2=O)cc1 (stereo unspecified),-0.6%
O=C(O)Cn1cccc1C(=O)c1ccccc1,4.3%
N#CC1=C(N)OC(c2ccccc2)=C(C#N)C1c1ccc2c(c1)OCO2 (stereo unspecified),-1.7%

Additional compounds.
Every second line gives: MT1-MMP promoter	WNV protease inh	Hsc70
N#CC1=C2SCN(Cc3ccccc3)CN2C(=O)CC1c1ccccc1F (stereo unspecified)
→ i	-1.9	3.2%
C=CCOc1ccc(/C(O)=C2\C(=O)C(=O)N(CCN(C)C)C2c2cccs2)cc1 (stereo unspecified)
→ i	-0.48	1.0%
N#CC1=C(N)C(C#N)(C#N)[C@H](c2ccoc2)[C@H]2CN(Cc3ccccc3)CC=C12
→ +	-1.6	63%
CCOC(=O)c1c(C)c(-c2ccccc2)n(CC(=O)N2CCCC2)c1C
→ i	-0.66	1.4%
O=C(Cn1cnc2ccccc2c1=O)c1ccc2c(c1)OCCO2
→ i	-0.41	-1.8%
Cc1cc(NS(=O)(=O)c2ccc(NC(NC(=O)C(C(F)(F)F)C(F)(F)F)(C(F)(F)F)C(F)(F)F)cc2)no1
→ i	x	-2.6%
CCNC(=O)Cc1ccc(NS(=O)(=O)c2ccc(F)cc2)cc1
→ i	-0.34	1.3%
C=CCCCCCCCCc1nc(=S)[nH][nH]1
→ i	x	-3.1%
CCN(CC)CCCN1C(=O)C(O)=C(C(=O)c2cccs2)C1c1ccccn1 (stereo unspecified)
→ i	-0.44	4.0%
CCC(=O)NCCc1nc2ccccc2n1Cc1ccc(C)cc1
→ i	x	0.7%
Cc1cc(F)c(F)c(C(=O)N2CCOCC2)c1Cl
→ i	x	-0.7%
Cc1cccn2c(=O)c3cc(C(=O)N(C)C)n(C)c3nc12
→ i	-0.49	42%
O=C(NC12CC3CC(CC(C3)C1)C2)c1ccc(=O)oc1
→ i	0.2	1.9%
Cc1cccc(NC(=O)COc2ccc(Br)cc2C)n1
→ i	-0.23	3.2%
CCCC1CC(CSC(=N)N)OC1=O (stereo unspecified)
→ i	x	2.4%
N=c1c(C(=O)NCc2ccco2)cc2c(=O)n3ccccc3nc2n1Cc1ccccc1
→ i	0.14	-0.1%
Cc1ccnc(N2CCC(C(=O)NC3CCCCCC3)CC2)n1
→ i	1.1	3.1%
COCCN1Cc2cccc(C(=O)NCc3ccccc3OC)c2C1=O
→ i	-0.78	8.0%
O=C(C1CCN(C2CC(=O)N(c3cccc(Cl)c3)C2=O)CC1)N1CCCC1 (stereo unspecified)
→ i	-0.41	-2.7%
Cc1ccc2c(c1)c1c(n2CC2COC(C)(C)O2)C(=O)CCC1 (stereo unspecified)
→ i	2.9	-1.1%
COc1ccc(C(=O)N2CCCCC2)cc1S(=O)(=O)Nc1cccc(C(=O)O)c1
→ i	x	-0.6%
CC1CN(C2CCN(S(=O)(=O)Cc3ccccc3)CC2)CC(C)O1 (stereo unspecified)
→ i	0.83	0.6%
Cc1cc(Cl)ccc1OC(C)C(=O)Nc1ccccc1N1CCOCC1 (stereo unspecified)
→ i	2.9	1.3%
CC(C)(C)c1csc(NC(=O)c2ccc(Cl)s2)n1
→ i	-1.1	3.1%
O=C(Nc1ccc(S(=O)(=O)Nc2cnc3ccccc3n2)cc1)c1ccc(Br)o1
→ i	0.68	-3.0%
Nc1c(C(=O)c2cccs2)oc2ccccc12
→ i	0.9	-1.0%
Cn1c(CCCNC(=O)c2cccs2)nc2ccccc21
→ i	-0.15	0.0%
C=C(C)CSc1nnc([C@@H]2CCCN2C(=O)OC(C)(C)C)o1
→ i	-0.61	-4.9%
CC(C)(C)NC(=O)c1cnn2c1NC(c1ccc(F)cc1)CC2C(F)(F)F (stereo unspecified)
→ i	-0.65	-3.6%
CCc1nc(N2CCC(C)CC2)c2oc3ccccc3c2n1
→ i	-0.06	-3.6%
CC(CP(=O)(O)O)NC(=O)Cc1ccccc1 (stereo unspecified)
→ i	1.6	-0.6%
CCC(c1nnnn1C(C)C)N1CCN(C2CCCC2)CC1 (stereo unspecified)
→ i	0.76	-3.7%
COc1ccc(C(=O)N2CCCc3ccccc32)cc1
→ i	-0.98	6.2%
COC(=O)CSc1ncc(C#N)c(N)n1
→ i	-0.58	-1.8%
CCN(C1CCCCC1)S(=O)(=O)c1ccc(S(=O)(=O)N(CC(=O)Nc2ccccc2)C2CC2)cc1
→ i	x	9.2%
CC(C)c1cc(Br)ccc1OCCCN1C(=O)NC(C)(C)C1=O
→ i	x	-0.7%
COCc1nnc(NS(=O)(=O)c2ccc([N+](=O)[O-])cc2)s1
→ i	x	-0.5%
Cc1ccc(Cn2c3ccccc3c3cn[nH]c(=O)c32)cc1
→ i	1.4	2.4%
COc1ccc(F)cc1S(=O)(=O)n1cc(C)nc1-c1ccccc1
→ i	-0.5	7.5%
Cc1ccc(OCCCN(C)C)c(Br)c1
→ i	-0.62	-3.6%

Arranged by number of heavy atoms (ascending): some entries from above.
Every second line gives: MT1-MMP promoter	WNV protease inh	Hsc70
Cc1cc(F)c(F)c(C(=O)N2CCOCC2)c1Cl
→ i	x	-0.7%
Cc1cccc(NC(=O)Nc2ccc(C)c(C)c2)n1
→ i	x	-1.3%
O=C(C1CCN(C2CC(=O)N(c3cccc(Cl)c3)C2=O)CC1)N1CCCC1 (stereo unspecified)
→ i	-0.41	-2.7%
Cc1cc(NS(=O)(=O)c2ccc(NC(NC(=O)C(C(F)(F)F)C(F)(F)F)(C(F)(F)F)C(F)(F)F)cc2)no1
→ i	x	-2.6%

Next entries.
Every second line gives: MT1-MMP promoter	WNV protease inh	Hsc70
NC(=O)CSc1nnc(-c2ccoc2)o1
→ i	-0.76	-0.1%
COc1ccccc1CNC(=O)CCNC(=O)Cn1ccc2ccccc2c1=O
→ i	-0.47	-1.6%
NCc1cccc(-n2cccn2)c1
→ i	0.4	1.7%
Cc1cccc(CCNC(=O)C2CCN(S(=O)(=O)c3cccc4nsnc34)CC2)c1
→ i	x	2.4%
Cc1c(C(=O)COC(C)(C)C)[nH]c2ccccc12
→ i	-0.92	-5.3%
CCCCN(C)C(=O)C1CCC(=O)N(c2cc(OC)c(OC)c(OC)c2)C1c1ccc(OC)cc1 (stereo unspecified)
→ i	x	1.4%
CCOC(=O)N1CCN(S(=O)(=O)c2ccc(F)cc2)CC1
→ i	0.59	4.2%
COc1cccc(OCC(=O)Nc2ccccc2NC(C)=O)c1
→ i	0.68	-1.8%
Clc1ccc(CSc2ncn[nH]2)cc1
→ i	-0.24	3.2%
CC1CCN(S(=O)(=O)Cc2ccccc2Cl)CC1
→ i	1.6	-11%
O=C(CCc1ccccc1)Nc1nnc(-c2ccc3c(c2)CCCC3)o1
→ i	0.0067	0.7%
CCOn1c(=O)c(-c2ccc(OC)cc2)[n+]([O-])c2ccccc21
→ i	0.93	-0.7%
COc1ccc(OCC(=O)Nc2ccccc2OC)cc1
→ i	1.8	3.8%
CC(=O)OCCN1C(=O)c2cccnc2C1=O
→ i	1.6	-6.3%
CC(C)C(NS(=O)(=O)c1ccc2c(c1)oc(=O)n2C)C(=O)N1CCN(C2CCCCC2)CC1 (stereo unspecified)
→ i	-0.91	-0.5%
CN(C(=O)c1ccc(=O)[nH]c1)C1(C(=O)NC2CCCCC2)CCCCC1
→ i	-1	-1.0%
CCOC(=O)C1CCCN(C(=O)CSc2nccn2C)C1 (stereo unspecified)
→ i	-0.33	6.6%
O=C(CSc1nnc(-c2cccnc2)n1Cc1ccccc1)N1CCOCC1
→ i	0.12	4.3%
CCC1(c2ccccc2)NC(=O)N(CC(=O)Nc2cccc(C#N)c2)C1=O (stereo unspecified)
→ i	1.1	-1.4%
Cn1c(SCC(=O)Nc2cccc(O)c2)nnc1-c1ccc(S(=O)(=O)N2CCOCC2)cc1
→ i	-0.56	-4.7%
O=C(NCC(=O)N(Cc1cccs1)C(C(=O)NC1CCCCC1)c1ccco1)c1ccco1 (stereo unspecified)
→ i	x	2.1%
C=CCc1c(C)[nH]c2ccc(C)cc2c1=O
→ i	-0.73	1.8%
O=C(Nc1ncnc2sc3c(c12)CCCCC3)c1ccccc1
→ i	x	-0.2%
CC(=O)Nc1c(O)nc(SCC(=O)Nc2sc3c(c2C#N)CCCCCC3)[nH]c1=O
→ i	x	0.7%
CS(=O)(=O)N(CC(=O)NCCSC1CCCCC1)c1ccc2c(c1)OCO2
→ i	0.33	3.7%
Cc1ccc(S(=O)(=O)N2CCC(C(=O)N3CCC[C@H]3C(=O)NCc3ccccc3)CC2)cc1
→ i	0.25	0.7%
O=C(NCN1C(=O)C2C3C=CC(C3)C2C1=O)OC1CCCCC1 (stereo unspecified)
→ i	0.01	9.8%
O=C(NCCOC(=O)c1ccc(Cl)cc1)c1cccnc1
→ i	x	4.4%
Cc1ccc(S(=O)(=O)NCCNC(=O)C2CCCNC2=O)cc1 (stereo unspecified)
→ i	-0.19	-3.0%
O=C1c2cccnc2-c2ncccc21
→ i	0.93	7.0%
CC(C)CCn1nnnc1C(C(C)C)N1CCC(C(N)=O)CC1 (stereo unspecified)
→ i	x	-1.2%
Cc1ccc(S(=O)(=O)n2nc(OC(=O)c3ccco3)cc2N)cc1
→ i	-5.3*	-10%
O=C1CC(N2CCOCC2)C(=O)N1CCN1C(=O)CC(N2CCOCC2)C1=O (stereo unspecified)
→ i	0.93	3.4%
Cc1ccc2nc3c(cc(C#N)c(=O)n3CCN3CCOCC3)c(=O)n2c1
→ i	1.4	18%
CCOC(=O)N1CCN(CCC(=O)Nc2ccc(OC)cc2OC)CC1
→ i	x	-3.0%
O=C(Nc1ccccc1)c1cccc(N2C(=O)CCC2=O)c1
→ i	-1	3.0%
COc1cccc(CNc2nc3ccccc3n2CCN2CCCCC2)c1
→ i	-0.87	-0.6%
CCNC(=O)N1c2ccc(OCC)cc2C(C)=CC1(C)C
→ i	1.1	-6.8%
Cn1ncc2nc[nH]c(=O)c21
→ i	-0.59	10%
O=c1c(-c2ccccc2)c(O)nc2ccccn12
→ i	-0.07	-3.7%
O=C1CC(c2cccs2)CC(O)=C1C=NCCN1CCNCC1 (stereo unspecified)
→ i	-0.29	-2.8%
COc1cc(C2c3c(-c4ccccc4)n[nH]c3C(=O)N2c2ccccc2)ccc1O (stereo unspecified)
→ i	-0.02	1.0%
CC1=C(C)/C(=N/OC(=O)c2cccc([N+](=O)[O-])c2)C=CC1=O
→ i	x	-3.7%
CCCNC(=O)c1c(C)cc(=O)oc1C
→ i	-0.29	-3.3%
CC(=O)N1CCC2(CC1)C(C#N)=C(N)OC1=C2C(=O)CC(C)(C)C1
→ i	x	1.8%
C[C@]12C=CC(=O)C=C1CC[C@@H]1[C@@H]2[C@@H](O)C[C@@]2(C)[C@H]1CC[C@]2(O)C(=O)COC(=O)CCC(=O)O
→ i	-0.13	-8.6%
CCOCC(=O)Nc1cc(C(=O)OC)ccc1C(=O)OC
→ i	-0.94	9.9%
O=C(O)CCc1nc(-c2cccs2)no1
→ i	-1.4	-10%
